Source: PubChem BioAssay
RecA splice inh: inhibitors of M. tuberculosis RecA intein splicing. P9WHJ3. inhibition, %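 (about 9 µM by stock and volumes)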. cell-free RecA intein splicing, fluorescence. AID 2221. actives 0.75% (n = 290,000); in the data active = inhibition above about 30%;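 also: 0% = vehicle wells and 100% = reference inhibitor control wells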
Target sequence (P9WHJ3 whole entry, looked up, canonical isoform): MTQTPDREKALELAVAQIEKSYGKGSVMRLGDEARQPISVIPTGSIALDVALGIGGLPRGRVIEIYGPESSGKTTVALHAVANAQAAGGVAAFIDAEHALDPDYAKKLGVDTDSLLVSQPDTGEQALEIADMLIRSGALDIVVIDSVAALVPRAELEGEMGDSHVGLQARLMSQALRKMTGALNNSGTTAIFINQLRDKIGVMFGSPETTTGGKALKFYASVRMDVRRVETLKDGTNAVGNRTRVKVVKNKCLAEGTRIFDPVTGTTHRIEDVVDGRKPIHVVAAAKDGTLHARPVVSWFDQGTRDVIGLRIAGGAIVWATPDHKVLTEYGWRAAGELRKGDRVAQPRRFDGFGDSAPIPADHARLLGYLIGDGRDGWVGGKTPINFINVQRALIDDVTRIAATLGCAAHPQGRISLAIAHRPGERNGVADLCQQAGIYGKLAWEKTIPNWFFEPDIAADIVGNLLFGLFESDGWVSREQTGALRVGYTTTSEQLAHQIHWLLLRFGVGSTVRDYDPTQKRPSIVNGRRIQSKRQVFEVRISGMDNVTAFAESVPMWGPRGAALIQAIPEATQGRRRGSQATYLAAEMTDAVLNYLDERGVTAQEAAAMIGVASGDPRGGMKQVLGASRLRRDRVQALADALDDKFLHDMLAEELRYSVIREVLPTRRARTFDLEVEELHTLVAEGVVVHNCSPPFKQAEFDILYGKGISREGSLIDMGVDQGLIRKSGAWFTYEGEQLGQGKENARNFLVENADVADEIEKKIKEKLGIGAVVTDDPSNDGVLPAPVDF
Mtb growth: M. tuberculosis H37Rv growth inhibitors, H37Rv strain (AID 1626) | M. tuberculosis H37Rv growth inhibition; higher % means a stronger effect | inhibition, % at 10 µM; hits with a dose series show IC50 in µM | actives 0.95% (n = 220,000);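 active = confirmed in a dose series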;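 also: bacteria incubated seven days before Alamar blue readout; 0% = bacteria only wells and 100% = bacteria with antibiotic wells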
Arbovirus inh: arbovirus infection inhibition; inhibition, % at 10 µM; arbovirus infection cell-based antiviral screen; AID 1251; actives 0.37% (n = 200,000);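 active = inhibition from about 30%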;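 also: bluetongue infection of BSR cells; cell survival read as ATP light after 72 h; 0% = infected wells without compound and 100% = uninfected wells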
YopH inh: blocks Yersinia enterocolitica YopH tyrosine phosphatase | AID 898 | fluorescence Ex485/Em525 | inhibition, %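 (about 10 µM by stock and volumes)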 | actives 0.16% (n = 140,000);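 active = inhibition of 50% or more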;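 also: controls were vehicle for no effect and minimum signal wells for full effect; inactives centre near -20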
Mtb bLac sens: beta-lactam sensitization of Mtb H37Rv. inhibition, % at 25 µM. M. tuberculosis H37Rv growth with meropenem, percent inhibition; hits of this screen are not shown here. actives 0.27% (n = 330,000);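 active = about 74% or more and at least 40 points above the plate without the antibiotic, then above 30% in a dose series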;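 also: growth measured after seven days incubation then overnight dye step; 0% = bacteria only wells and 100% = bacteria with antibiotic; twin plates without the antibiotic show which effects depend on it; some results filed as inactive read as strong as hits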
Arbovirus inh repeat: also measured in Arbovirus inh; calls as there; inhibition, %; measured here: 10K subset replicate screen; many hits read low in the repeat;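 first of two repeat runs on a subset; 0% = infected and 100% = uninfected wells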
Numbers without * were called inactive; . = no result given.

SMILES | RecA splice inh | Mtb growth | Arbovirus inh | YopH inh | Mtb bLac sens | others
COc1ccc(C(CNC(=O)COc2ccccc2)N2CCOCC2)cc1 (centres undefined) | -0.2 | . | . | . | 1.4
CSCC[C@H](NC(=O)OC(C)(C)C)c1nnc(SCC=C(C)C)o1 | 0.9 | -10.8% | 8.4 | -28.1 | 4.5
CCCc1nn(-c2cc(Cl)ccc2OC)c2c1C(=O)CCC2 | -2.9 | 3.2% | -7.6 | -17.8 | 3.0
O=c1c2c3c(sc2nc2n1CCCS2)CCCC3 | . | 0.3% | -5.2 | -36.1 | -12.7
COc1ccc(C(C)NC(=O)c2ccoc2C)cc1OC (centres undefined) | -0.9 | 6.2% | 2.6 | -29.6 | -15.5
CC(=O)N1CCOc2ccc(S(=O)(=O)NCc3ccc(C)cc3)cc21 | 0.3 | . | . | . | 3.2
COc1cccc(NC(=O)CSc2nnc(CNC(=O)c3ccccc3F)o2)c1 | -5.1 | . | . | . | 1.3
O=C(NCCNc1ccc([N+](=O)[O-])cc1)c1ccco1 | 5.4 | -0.1% | 6.0 | . | -3.2
COc1ccc2[nH]c(=O)c(CN(CC3CCCO3)S(=O)(=O)c3ccccc3)cc2c1 (centres undefined) | -5.7 | 1.1% | -1.2 | . | -1.5
Cc1cccc(C(=O)Nc2ccc(C(=O)N3CCCCC3C)cc2)c1 (centres undefined) | 1.9 | . | . | . | 0.4
Cc1ccc(C)c(NC(=O)CN(C)C(=O)Cc2coc3cc(C)c(C)cc23)c1 | -2.5 | . | . | . | -3.1
CC(C)(C)C1CCc2c(sc(NC(=O)C3CCCO3)c2C(N)=O)C1 (centres undefined) | -4.2 | 26.3% | -21.4 | -12.2 | 93.1
NC(N)=NN=C1CCCCCCCCCCC1 | 5.2 | -9.4% | . | . | -0.3
Cc1cccn2c(CN(C)CCC3CCCCO3)c(C(=O)N3CCCCC3)nc12 (centres undefined) | -0.2 | 6.0% | 1.8 | . | 1.7
COc1ccc(CCNC(=O)CSc2nncn2N)cc1OC | -2.7 | -4.1% | 1.8 | 27.9 | 8.2
Cc1ccc(C(=O)C(NC(=O)c2ccco2)N2CCOCC2)cc1 (centres undefined) | 1.7 | -9.6% | -1.5 | -28.3 | -3.2
Cc1ccc(C)c(NC(=O)CN(C)C(=O)c2ccc(-c3cccc(C(F)(F)F)c3)o2)c1 | -2.2 | . | . | . | 2.7
O=C(NC(CO)c1ccccc1)c1ccco1 (centres undefined) | -0.9 | -6.4% | 2.1 | -6.1 | -4.4
CC1(C)Cc2ccccc2C(NNC(=O)c2cccnc2)=N1 | -5.8 | 2.0% | 5.4 | -26.6 | 32.6
COCCc1ncc(CN2CCC(C(=O)Nc3ccc(-n4cccn4)cc3)CC2)cn1 | -1.0 | . | . | . | -4.5
CCN(CC)CC#CCC(C)(c1ccccc1)c1ccccc1 | 3.4 | 12.4% | 4.6 | 8.7 | -19.3
COCCn1nnnc1CN1CCC(NC(=O)Nc2cccc(OC)c2)CC1 | 9.6 | 1.7% | 9.1 | -23.0 | -0.7
CCCCN(Cc1ccccc1)S(=O)(=O)c1ccc2c(c1)n(C)c(=O)c(=O)n2C | 0.3 | 6.9% | . | . | 2.1
O=[N+]([O-])c1ccc(S(=O)(=O)N(CC(O)CN2CCCCC2)c2ccccc2)cc1 (centres undefined) | 0.4 | . | . | . | 1.2
COc1ccccc1NC(=O)CSc1nc(N)cc(N)n1 | -0.2 | -6.9% | 8.1 | -23.6 | 5.8
CC(C)(C)NC(=O)NC(=O)COC(=O)C1(C)CC1(Cl)Cl (centres undefined) | -1.3 | -6.7% | 2.8 | . | 4.4
CCOC(=O)CSC1=C(C#N)C(c2sccc2C)CC(=O)N1 (centres undefined) | 1.1 | -2.7% | -12.5 | -53.2 | -10.3
O=C(Nc1cccc2c1CCCC2)c1ccc(Br)o1 | 0.8 | 7.3% | -3.1 | -40.9 | 13.3 | Arbovirus inh repeat=-0.6
O=C1NC(=O)N(c2ccc3c(c2)OCO3)C(=O)/C1=C/c1ccc(N2CCCCC2)o1 | -1.1 | 6.2% | 4.9 | -32.5 | 2.9
O=C(N/N=C\c1cn(-c2ccccc2)nc1-c1ccccc1)c1ccc(Br)o1 | 4.5 | . | -11.0 | -21.9 | 83.9
Cc1ccc(NNC(=O)c2cccs2)cc1Cl | 6.3 | 60.2% | . | . | 95.3
Cc1nc2ncnn2c(C)c1CCC(=O)NC(C)c1ccc2c(c1)OCCO2 (centres undefined) | -0.9 | -5.8% | 1.7 | -26.3 | 6.4
CC(C(=O)Nc1ccccn1)(c1ccccc1)c1ccccc1 | 2.3 | . | . | . | 0.6
COC(=O)Cn1c(=NC(=O)c2ccc([N+](=O)[O-])s2)sc2cc(Br)ccc21 | -19.7 | 19.4% | -8.2 | -19.6 | 6.9
CCN1CCN(Cc2ccccc2C)CC1 | 1.5 | -0.2% | 3.1 | 49.2 | 3.7
CC(C)(C)c1ccccc1OCCCCN1CCCC1 | -4.6 | 6.1% | -2.1 | 12.7 | 10.5
CC1C(C)C(O)(c2ccccc2)CCN1C (centres undefined) | . | -8.0% | 3.6 | -39.0 | -11.8
CC1CCN(C(=O)CNC(=O)Cc2ccccc2)CC1 | -4.7 | -1.8% | 3.9 | . | -5.2
Cc1ccc(S(=O)(=O)N2CCN(CCc3ccccc3)CC2)c(C)c1 | 4.8 | . | . | . | 4.3
CC1(C(=O)Nc2ccc3ccccc3c2)CC1(Br)Br (centres undefined) | 7.5 | 76.6% | -0.4 | . | 82.5
CCC(=NCc1cccnc1)c1c(O)n(-c2ccc(Cl)cc2)c(=O)[nH]c1=O | -1.6 | 5.0% | . | . | -0.9
Cc1ccccc1NC(=O)c1c(C)cc(=O)oc1C | 0.3 | -3.5% | . | . | -1.5
CCN(C(=O)COC(=O)Cn1c(C)csc1=O)c1c(N)n(Cc2ccccc2)c(=O)[nH]c1=O | -1.5 | . | . | . | -5.4
COc1ccccc1NCC(=O)c1ccc(C)c(C)c1 | 4.5 | . | . | . | -2.3
O=C(N/N=C/c1cccnc1)c1ccccc1OCc1ccc(Br)cc1 | 7.0 | 8.6% | 6.9 | . | -0.4
COCCNC(=O)c1cnn2c1NC(c1ccco1)CC2C(F)(F)F (centres undefined) | 0.0 | -1.1% | 2.1 | -9.8 | -4.8
O=C(Nc1ccc(F)cc1F)c1cc(=O)n(-c2ccccc2)c(=O)[nH]1 | 0.5 | 2.8% | 0.1 | . | -6.3
NC(=O)[C@@H]1CCCCNc2c(F)cc([N+](=O)[O-])cc2C(=O)N[C@@H](CCCN=C(N)N)C(=O)NCC(=O)N1 | 3.3 | -8.3% | 0.4 | -2.1 | 14.5
CC(C)(C)C(=O)n1nc(-c2ccccc2)oc1=O | 2.9 | 4.2% | 7.3 | -27.3 | -0.3
CCN(CC)S(=O)(=O)c1ccc(N2CCOCC2)c(NC(=O)C23CC4CC(CC(Cl)(C4)C2)C3)c1 | 0.8 | 3.2% | -4.4 | -22.4 | 15.6
O=C(Oc1c(-c2ccccc2)c(=O)n2c3c(cccc13)CC2)c1ccc(F)cc1 | 6.4 | 1.3% | . | . | .
O=C1/C(=C\c2ccc(O)cc2)SC(=S)N1Cc1ccccc1 | 20.0 | . | . | . | 8.5
COc1ccc(C(=O)NCc2nnc(SCC(=O)NCc3ccc(F)cc3)o2)cc1 | -1.8 | 5.4% | -1.8 | -20.9 | -6.9
CCCOc1ccc(C2=CSC3=NCCN23)cc1[N+](=O)[O-] | -1.7 | . | . | . | -6.2
Cc1cccc(OCC(=O)NCc2ccncc2)c1C | -14.6 | 1.1% | 1.6 | -26.2 | -1.1 | Arbovirus inh repeat=1.3
O=C(CN(CC1CCCO1)C(=O)CNS(=O)(=O)c1ccc(F)cc1)NCc1ccco1 (centres undefined) | -6.2 | -1.1% | 2.4 | . | -2.9
COc1ccc(N2CC(=O)N(c3ccc(OC)c(OC)c3)CC2=O)cc1OC | -0.8 | 2.3% | 2.6 | -23.5 | 3.3
CCCCn1c(O)c(C(C)=NCc2ccc(F)cc2)c(=O)[nH]c1=O | -0.2 | 3.6% | -7.0 | -52.0 | 1.1
CCN1C(=O)CC(N2CCN(c3cccc(OC)c3)CC2)C1=O (centres undefined) | -0.9 | -2.6% | 6.3 | . | 2.9
CC(=O)N1CCc2c(sc(NC(=O)C3CC3)c2-c2nc3ccccc3s2)C1 | 30.3* | 16.5% | -12.0 | 6.0 | 44.6 | Arbovirus inh repeat=-16.8

Next part, overlapping the part above by 4 compounds.
SMILES | RecA splice inh | Mtb growth | Arbovirus inh | YopH inh | Mtb bLac sens | others
COc1ccc(N2CC(=O)N(c3ccc(OC)c(OC)c3)CC2=O)cc1OC | -0.8 | 2.3% | 2.6 | -23.5 | 3.3
CCCCn1c(O)c(C(C)=NCc2ccc(F)cc2)c(=O)[nH]c1=O | -0.2 | 3.6% | -7.0 | -52.0 | 1.1
CCN1C(=O)CC(N2CCN(c3cccc(OC)c3)CC2)C1=O (centres undefined) | -0.9 | -2.6% | 6.3 | . | 2.9
CC(=O)N1CCc2c(sc(NC(=O)C3CC3)c2-c2nc3ccccc3s2)C1 | 30.3* | 16.5% | -12.0 | 6.0 | 44.6 | Arbovirus inh repeat=-16.8
O=C(C/C=N/OCc1c(Cl)cccc1Cl)c1ccc(Cl)cc1 | 6.4 | 1.7% | -6.1 | -39.4 | 5.3
COc1cc(NC(=O)COc2cc3oc(=O)cc(C)c3cc2Cl)cc(OC)c1OC | 0.7 | . | . | . | 3.2
CCn1c(/C=C/c2ccccc2Cl)nc2ccccc2c1=O | -0.2 | . | . | . | 2.3
CCc1ccc(C(C)NC(=O)/C=C/c2ccc(Br)cc2)cc1 (centres undefined) | 1.0 | 5.3% | -10.5 | -10.9 | -0.2
COc1ccc(C(=O)Nc2ccc(C)cn2)c(OC)c1 | -2.5 | -3.5% | 6.1 | -15.9 | 9.7
CCn1c(CN(C)c2ccccc2)nc2ccccc21 | 0.3 | . | . | . | 7.0
c1ccc2c(c1)CCN2CCN1CCc2ccccc21 | 4.1 | -2.6% | -3.9 | -35.1 | 6.6
COc1cccc(CN2CCC(Oc3ccc(C(=O)N4CCCCC4)cc3)CC2)c1 | 1.4 | . | . | . | 4.1
c1ccc2c(c1)Nc1ccncc1S2 | -2.8 | -3.5% | . | . | -0.9
CCOc1ccc(S(=O)(=O)Nc2ccc(OC)nc2)cc1 | 0.8 | . | . | . | -3.4
Cc1cc(NC(=O)c2ccc(Br)o2)ccc1NC(=O)c1ccco1 | -1.2 | . | . | . | -6.1
Cc1ccc(N2CCN(/N=C/c3ccccc3[N+](=O)[O-])CC2)cc1 | 1.8 | 1.7% | 0.8 | . | 2.0
Cc1nc(SC2CCOC2=O)c2c(C)c(C)sc2n1 (centres undefined) | 1.8 | 0.2% | 11.5 | -8.0 | -2.1
O=C(O)c1cccc2c(-c3ccccc3)c(-c3ccccc3)[nH]c12 | 12.5 | 9.7% | . | . | 3.5
CC(=O)NCc1ccc(S(=O)(=O)NC(C(=O)O)C(C)C)cc1 (centres undefined) | -3.9 | -0.9% | 6.3 | . | 13.5
CN(C)/C=C(\C#N)S(=O)(=O)C(C)(C)C | -0.5 | -5.4% | 0.0 | . | 3.9
Cc1cc(Cl)c2oc(C(=O)N3CCC(O)(c4ccccc4)CC3)c(C)c2c1 | 0.4 | . | . | . | 6.7
C#C[C@]1(O)CC[C@H]2[C@@H]3[C@H](C)CC4=C(CCC(=O)C4)[C@H]3CC[C@@]21C | 3.1 | -6.8% | . | . | -3.0
COc1ccc(C2C(C(C)=O)=C(O)C(=O)N2Cc2ccccc2)c(OC)c1 (centres undefined) | 2.2 | . | . | . | 0.7
OCC12CO[C@@H]3c4ccccc4[C@H](OC1)N32 (some centres undefined) | -0.5 | -66.8% | 12.2 | -16.5 | -6.2
Cc1ccc(N2CCN(S(=O)(=O)c3nnc(NC(=O)c4ccccc4)s3)CC2)cc1 | 0.9 | . | . | . | 3.9
Cc1cccc(C)c1OCC(=O)NCc1nnc(SCC(=O)NC2CCCCC2C)n1C (centres undefined) | 1.1 | -1.9% | -4.0 | -9.8 | 4.1
O=C(Nc1cccc(Cl)c1)C1CCCN(S(=O)(=O)c2ccc(F)cc2)C1 (centres undefined) | 5.0 | -2.8% | -7.8 | -11.9 | -4.0
COc1ccccc1C(=O)C1CCCN(C(=O)c2ccccc2Cl)C1 (centres undefined) | 0.1 | . | . | . | 0.3
Cc1ccc(C(=O)c2coc3ccc(O)c(CN(C)C)c23)cc1 | -0.3 | . | . | . | 0.3
Cc1c(NC(=O)CCC2CCCCC2)c(=O)n(-c2ccccc2)n1C | 0.4 | -6.7% | 9.8 | -21.3 | -0.8 | Arbovirus inh repeat=2.2
CC(Nc1n[nH]c(=O)[nH]c1=O)C(=O)N/N=C/c1cccs1 (centres undefined) | 1.1 | -2.1% | 4.2 | . | -3.7
CN1CCN(CCCNC(=O)CCCOc2cc(=O)n(C)c3ccccc23)CC1 | -3.6 | -9.9% | -5.6 | -9.6 | -1.7

Not all compounds are listed; count on the stated rates, not on these rows.
